# Biofilm kill mix: mixtures killing C. albicans biofilm; AID 1242; inhibition, % at 7.6 µM; C. albicans biofilm persisters + clotrimazole, fluorescence viability; primary screen in compound mixtures of four per well; 0.02% of 120,000 active;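 active means inhibition above 30.3% in the primary screen of four-compound pools, then above 30% when the compound was retested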;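 further: compounds exposed to preformed 24 h biofilms for 48 h; the number belongs to the whole pool; some results filed as inactive read as strong as hits; inactives centre near 12; 0% = biofilm with clotrimazole alone and 100% = kill control; retested singly at about 60 µM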
#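 Assay system: C. albicans biofilms / Medium: RPMI/MOPS medium, pH 7.0 / Schedule: biofilm formation 24 h, compound exposure 48 h, 37 °C / Measured by: Alamar Blue fluorescence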
# * = called active by the depositor. A portion of the library; the hit share may differ from the screen's.
SMILES,Biofilm kill mix
CC(C)N1CCC(N2CCN(Cc3ccc(-c4ccc(Cl)cc4)o3)CC2CCO)CC1 (stereo not given),20
Cn1c(SCc2n[nH]c(=S)n2-c2ccccc2)nnc1-c1ccccc1,5
Nc1oc2ccccc2c(=O)c1C=O,11
CCOc1nc(C)cc(C)c1S(=O)(=O)c1ccc(Cl)cc1,6
COC(=O)c1cccnc1NC(=S)NC(C)C,5
C/C(Cn1nc([N+](=O)[O-])cc1C)=N\NC(=O)COc1ccc(Cl)cc1Cl,13
COC(=O)c1ccc(Oc2nc(NC(C)(C)C)nc(N3CCOCC3)n2)cc1,5
COc1cc(OC)cc(C(=O)NNC(=O)CCc2ccccc2)c1,9
CN(CC(=O)Nc1ccc(N2CCOCC2)cc1)C(=O)C1CCCC1,7
Cc1noc(C)c1COc1cccc(C(=O)NC(C)(C)C)c1,13
Nc1cccc(Nc2ccccc2)c1,17
Cc1ccc(-c2cc(=O)c3cc(C)ccc3[nH]2)cc1,-2
O=C(NC1CCCCC1)c1cc(C(=O)c2ccccc2Br)c[nH]1,9
CCCCCCNC(=O)Cc1ccc(Br)cc1,9
COc1ccc(/C=N/NS(=O)(=O)c2ccc(F)cc2)cc1COc1cc(F)ccc1[N+](=O)[O-],5

# The list goes on; the last 4 above are carried over.
SMILES,Biofilm kill mix
Cc1ccc(-c2cc(=O)c3cc(C)ccc3[nH]2)cc1,-2
O=C(NC1CCCCC1)c1cc(C(=O)c2ccccc2Br)c[nH]1,9
CCCCCCNC(=O)Cc1ccc(Br)cc1,9
COc1ccc(/C=N/NS(=O)(=O)c2ccc(F)cc2)cc1COc1cc(F)ccc1[N+](=O)[O-],5
Cc1ccc2cc(C3CC(c4ccco4)=NN3S(=O)(=O)c3ccccc3)c(Cl)nc2c1 (stereo not given),2
O=C(CCc1nc2ccccc2c(=O)[nH]1)OCC(=O)c1cccc(Cl)c1,5
CCC(C(=O)NNC(=O)c1cnccn1)c1ccccc1 (stereo not given),7
O=C(Nc1cccc2ncccc12)c1ccc(F)cc1,10
Cc1cc(=O)[nH]c(SCC(=O)NC(c2ccccc2)c2ccccc2)n1,9
CCCCCN(C(=O)NC(=O)Nc1cccc(C)c1C)S(C)(=O)=O,18
CC(=O)Nc1ccc(C(=O)OCC(=O)Nc2ccc([N+](=O)[O-])cc2C(F)(F)F)cc1,10
COc1cccc(C(=O)COc2ccc3c(C)c(Cc4ccccc4)c(=O)oc3c2)c1,15
NC(=O)N/N=C/c1cc(Br)ccc1OCC(=O)NCc1ccccc1,15
CNC(=O)c1[nH]cnc1C(=O)Nc1ccc(Cl)cc1,14
C=CC[n+]1c(-c2ccc(C)cc2)csc1Nc1ccc(NC(C)=O)cc1,14
CC(C)(C)[C@H]1C=C(C(=O)NC2CC2)O[C@@H](OCc2ccc(CO)cc2)C1,0
CCC(=O)Oc1ccc(C(=O)Nc2ccc([N+](=O)[O-])cc2)cc1,18
CC1CC(Nc2ccccc2)c2ccccc2N1C(=O)c1ccco1 (stereo not given),21
c1ccc(N/N=C(\Cc2nc3ccccc3[nH]2)c2ccccc2)cc1,11
NC(=O)CC(NC(=O)Cc1cccc2ccccc12)c1ccc(NCCc2cccc(F)c2)c([N+](=O)[O-])c1 (stereo not given),13
COCCOC(=O)c1c(C)oc2ccc(NS(=O)(=O)c3ccc(F)cc3)cc12,13
O=C(CSc1nnc(-c2ccco2)c(-c2ccco2)n1)c1ccccc1,-8
O=S(=O)(Nn1cnnc1)c1ccccc1,4
COc1ccccc1N1CCN(CC(O)COc2ccc3c(c2)OCO3)CC1 (stereo not given),9
O=C(Nc1ccccc1C(F)(F)F)c1cc2ncc(CCCl)cn2n1,12
O=C(N/N=C/c1cccnc1)c1ccccc1NS(=O)(=O)c1cccs1,15
CC(=O)c1sc(N/N=C2\CC3CCC2(C)C3(C)C)nc1C (stereo not given),7
CC(C)Oc1ccc(OCCn2c(=S)[nH]c3c(N)ncnc32)cc1,25
COc1ccc(Nc2cc(Cl)nc(N)n2)cc1,12
C/C=C/C(=O)OCC(=O)Nc1cccc(S(=O)(=O)NC2=NCCCCC2)c1,11
COC(=O)CNC(=O)CCc1nnc(C2(c3ccc(Cl)cc3)CCC2)o1,25
COC(=O)CN1CC(=O)N(c2ccccc2)C1=S,10
COc1ccc(C)cc1N(C(=O)c1ccccc1F)c1nc2ccccc2s1,-10
CC(=O)Nc1ccc(-n2cnnn2)cc1,14

# In the list so far, 2 contain two or more sulfur atoms.
SMILES,Biofilm kill mix
Cn1c(SCc2n[nH]c(=S)n2-c2ccccc2)nnc1-c1ccccc1,5
O=C(N/N=C/c1cccnc1)c1ccccc1NS(=O)(=O)c1cccs1,15

# Continuation.
SMILES,Biofilm kill mix
C=CCn1c(CNC(=O)c2ccco2)nnc1SCC(=O)c1ccc(OC)cc1,22
CCCN(CCC)C(=O)c1cc([N+](=O)[O-])cc2c1-c1ccc([N+](=O)[O-])cc1C2=C(C#N)C#N,18
O=[N+]([O-])c1cccc(N=Cc2sc3ccccc3c2O)c1,14
Nc1[nH]n(-c2ccccc2)c(=O)c1N=Nc1ccc2c(c1)OCO2,1
COc1cc(C(=O)Nc2cc(-c3cn4cccnc4n3)ccc2C)cc(OC)c1OC,12
CC1CN=C(N(C(=O)Nc2ccccc2)C(C)C)S1 (stereo not given),22
COc1ccc(CC(=O)OCC(=O)Nc2cccc(Br)c2)cc1,10
NC(=S)NNC(=O)Nc1cccc(Cl)c1,13
Fc1ccccc1/C=N/Nc1ncnc2ccccc12,11
Cc1c(/N=C(\[O-])Nc2ccc(Br)cc2)sn[n+]1C,18
COc1ccc(N(CC(=O)Nc2cc([N+](=O)[O-])ccc2C)S(C)(=O)=O)cc1OC,16
CC(=O)NC(Cc1ccc(C)cc1)C(=O)NC1CCN(c2ncccc2[N+](=O)[O-])CC1 (stereo not given),16
Cc1ccccc1C(=O)N1CCC(C(=O)N2CCN(S(=O)(=O)c3ccccc3F)CC2)CC1,19
CC(C)(C)SCCNC(=O)c1ccc(Cl)c([N+](=O)[O-])c1,7
O=C(NCCc1c[nH]c2ccccc12)C(=O)NCC1OCCN1S(=O)(=O)c1ccc(Cl)cc1 (stereo not given),16
O=C(CCS(=O)(=O)c1ccccc1)NCCS(=O)(=O)c1ccccc1,8
O=C(c1ccc(S(=O)(=O)N2CCCC2)cc1)N1CCC(CN2C(=O)c3cccc4cccc(c34)C2=O)CC1,25
COc1cc(/C=C/C(=O)OCC(=O)NC(=O)NC(C)(C)C)ccc1OCC#N,9
NC(=O)CSc1nnnn1-c1ccccc1Cl,13
C=CCN(C(=O)CSC1=NC(=O)CN1C(C)=O)c1nc(C)c(-c2ccccc2)s1,16
CCN(C(=O)CSc1nnc(-c2ccccc2)o1)c1c(N)n(Cc2ccccc2)c(=O)[nH]c1=O,-2
O=C(Cn1nnc2ccccc2c1=O)NCc1ccc(Cl)cc1,7
COc1cc(/C=N/NC(=O)c2ccccn2)cc2c1OCO2,9
CC(=O)c1cc(CN2CCN(Cc3ccccc3)C(CCO)C2)cs1 (stereo not given),11
COc1ccccc1NCC(=O)N/N=C/c1sccc1C,-10
CCOc1ccccc1OCCCC(=O)Nc1sccc1C(N)=O,21
CCCCC(=O)Nc1ccc(C(=O)Nc2ccc(OC)cc2[N+](=O)[O-])cc1,7
CC(C)CC(=O)Nc1ccc2c(c1)OCO2,8
COc1ccc(C(=O)Nc2ccccc2Cc2ccccc2)c(OC)c1,12
COc1ccc(-c2ncc(CN3CCN(CCC(C)C)C(CCO)C3)cn2)cc1 (stereo not given),0
CN1CCN(C(=O)CSc2ccc(C(F)(F)F)cc2[N+](=O)[O-])CC1,9
O=C(NCc1ccccc1)c1ccc(Cl)nc1,27
O=C(CSc1nc2ccccc2[nH]1)N/N=C/C=C\c1ccccc1[N+](=O)[O-],14
N#Cc1ccc(C(=O)Nc2ccc([N+](=O)[O-])cc2)c(F)c1,17
O=C1C2CC=CCC2C(=O)N1c1ccc(NCCc2ccccc2F)c([N+](=O)[O-])c1 (stereo not given),-13
O=C(C1CCCCC1)N1CCc2ccccc21,3
CC1(C)CC(=O)C(N=Nc2ccc(F)cc2)=C(O)C1,12
O=C(COC(=O)c1ccc2c(c1Cl)C(=O)c1ccccc1C2=O)NC1CCCCC1,9
O=C(N=Nc1c(O)[nH]c2ccccc12)c1cccc(S(=O)(=O)Nc2ccccc2Cl)c1,14
CCOC(=O)C1=C(C)N=C2SC(C)C(=O)N2C1c1ccccc1 (stereo not given),6
O=C(CNC(=O)c1ccc(F)cc1)N/N=C/c1cc(Br)ccc1OC(=O)/C=C/c1ccco1,22
CS(=O)(=O)N1CCN(c2ccccc2NC(=O)CSc2nnc(-c3ccco3)o2)CC1,10
Clc1cc2c(nn1)Nc1ccccc1S2,16
Cc1ccc2[nH]c3c(=O)n(N)c(C)nc3c2c1,39
CC(NC(=O)C(C)N1C(=O)C2C3CC(C(Br)C3Br)C2C1=O)c1ccccc1 (stereo not given),12
O=c1[nH]c(SCc2cccc(F)c2)nc2ccccc12,19
CCN(CC(=O)Nc1ccc(N2CCOCC2)cc1)C(=O)COc1ccccc1OC,8
O=C(O)c1ccccc1SCc1cn2cc(Cl)ccc2n1,16
COc1ccc(C(=O)O)cc1S(N)(=O)=O,3
CCN(CC)S(=O)(=O)c1ccc(N2CCOCC2)c(NC(=O)c2ccc3ccccc3c2)c1,14
Oc1ccc(/C=N\Nc2cc(N3CCOCC3)nc(N3CCOCC3)n2)c(O)c1,13
CCc1ccc(S(=O)(=O)Nc2cccc(C3OCCCO3)c2)cc1,15
CCn1c(CC(=O)Nc2ccccc2OC)nnc1SCC(=O)Nc1ccccc1F,-1
CC(C)C(=O)Nc1ccc(C(=O)NNC(=S)NC(=O)c2ccco2)cc1,-5
COCCn1c(SCC(=O)Nc2cc(C)on2)nc2ccccc21,24
Cc1cc(=O)[nH]c(SCC(=O)Nc2cc(S(=O)(=O)N3CCCC3)ccc2Cl)n1,34
CC(=O)c1ccc(NC(=O)C(C)n2nc(-c3ccccc3)c3cc(Cl)ccc32)cc1 (stereo not given),16
O=Cc1ccc(Oc2cnccn2)cc1,-7
CN1CCN(c2ccccc2NC(=O)c2ccc(N3CCCC3)c([N+](=O)[O-])c2)CC1,5
CC1=C(C(=O)OCc2ccccc2)C(c2ccc(Cl)cc2Cl)NC(=O)N1CCCCCC(=O)O (stereo not given),-4

# Single entries from the results shown.
# `CC(C)N1CCC(N2CCN(Cc3ccc(-c4ccc(Cl)cc4)o3)CC2CCO)CC1` (stereo not given) in Biofilm kill mix: 20
# `CCC(=O)Oc1ccc(C(=O)Nc2ccc([N+](=O)[O-])cc2)cc1` in Biofilm kill mix: 18

# Continued:
SMILES,Biofilm kill mix
Cc1oc2c(c1C(=O)N1CCOCC1)C(=O)c1ccccc1C2=O,19
Cc1ccc(C(=O)c2c(NC(=O)CSc3nnc(N)s3)sc3c2CCCC3)cc1,13
COc1cc(/C=N/NC(=S)Nc2cccc(S(=O)(=O)N(C)C)c2)ccc1O,16
COC(=O)c1cc(NC(=O)C2CCCN(S(=O)(=O)c3c(C)n[nH]c3C)C2)cc(C(=O)OC)c1 (stereo not given),5
Cc1ccc2nsnc2c1NC(=O)c1cncc(Br)c1,8
Cc1nc2nc(SCc3ccc([N+](=O)[O-])cc3)[nH]c2cc1Br,16
CC(C)(C)c1ccc(C(=O)NNC(=O)C2CCCCC2)cc1,16
CCn1c(=O)cc(N2CCOCC2)[nH]c1=O,22
COc1cc(CN(C)C(C)C(=O)Nc2ccc([N+](=O)[O-])cc2Cl)ccc1OC(F)F (stereo not given),12
O=C(O)C1CC=CCC1C(=O)NNS(=O)(=O)c1ccccc1 (stereo not given),17
Cc1noc2ncnc(N3CCN(c4ccc(F)cc4)CC3)c12,5
CC1(C)Cc2c(c(=S)nc(-c3ccccc3)n2Cc2cccnc2)CO1,15
CCc1ccc2c(c1)[C@H]1OCC[C@H]1[C@@H](c1cccs1)N2,7
CCOC(=O)c1sc(=NC(=O)/C=C/c2cccs2)n(C)c1C,4
CSC1=N/C(=C\c2ccccc2C)C(=O)S1,7

# 6 compounds from above, arranged by number of heavy atoms, rising.
SMILES,Biofilm kill mix
CCn1c(=O)cc(N2CCOCC2)[nH]c1=O,22
Cc1ccc2nsnc2c1NC(=O)c1cncc(Br)c1,8
CCOC(=O)c1sc(=NC(=O)/C=C/c2cccs2)n(C)c1C,4
CC1(C)Cc2c(c(=S)nc(-c3ccccc3)n2Cc2cccnc2)CO1,15
Cc1ccc(C(=O)c2c(NC(=O)CSc3nnc(N)s3)sc3c2CCCC3)cc1,13
COc1cc(CN(C)C(C)C(=O)Nc2ccc([N+](=O)[O-])cc2Cl)ccc1OC(F)F (stereo not given),12

# (further entries)
SMILES,Biofilm kill mix
O=C(O)c1cccnc1SCc1ccccc1Cl,23
Cc1cccc(NC(=O)CSc2nnc(C)c(=O)n2N)c1,14
COc1ccccc1-c1ccc(SCc2ccccc2F)nn1,13
COc1cc(NC(=O)c2ccc([N+](=O)[O-])cc2)ccc1NC(=O)C(C)C,16
CN(C(=O)CSc1nc2cc(Cl)ccc2c(=O)n1Cc1ccco1)C1CCS(=O)(=O)C1 (stereo not given),18
COc1cccc(NC(=O)CC(C)=O)c1,8
CCCNC(=O)COC(=O)c1cc(-c2ccc(OC)cc2)nc2ccccc12,-4
Cc1cc(N/N=C/c2ccc(N(C)C)cc2)nc(NCc2ccccc2)n1,30
CN(C)c1nnnn1-c1cccc(Oc2ncc(C(F)(F)F)cc2Cl)c1,15
Cc1ccn2c(NC(=O)c3ccco3)c(-c3ccccc3)nc2c1,8
CCc1cc2c(SCC#N)ncnc2s1,-3
Fc1ccccc1Nc1n[nH]c(=S)s1,10
Cc1cc(NC(=S)Nc2ccc(C)c(Cl)c2)n[nH]1,9
